CBX7 AlphaScr – blocks human CBX7 binding to H3K27me3 peptide. 66,000 compounds, 1.1% hits. AlphaScreen His6-CBX7 / biotin-H3K27me3 peptide binding; stronger effect = lower value. AID 1224903. normalised signal (fraction of DMSO) (test concentration not listed); in the data active = normalised signal below about 0.5;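 note: 100 nL library stock added to about 20 µL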
Target sequence (O95931 whole entry, looked up): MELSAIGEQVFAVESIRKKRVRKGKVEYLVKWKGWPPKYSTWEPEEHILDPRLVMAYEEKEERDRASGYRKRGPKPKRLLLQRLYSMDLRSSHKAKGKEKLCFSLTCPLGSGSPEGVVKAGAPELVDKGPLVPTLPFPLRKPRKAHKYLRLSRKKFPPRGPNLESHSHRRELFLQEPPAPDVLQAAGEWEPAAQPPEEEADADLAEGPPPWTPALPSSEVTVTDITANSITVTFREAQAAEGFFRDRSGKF
CBX7 AlphaScr z-score – also measured in CBX7 AlphaScr; calls as there; z-score; measured here: z-score of CBX7 signal; some inactives read as strong as hits; reference of the scale not given here;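 same signal on another scale; lower means less binding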
The depositor's hits bear a star. This is a subset; rates above refer to the full screens.

SMILES	CBX7 AlphaScr	CBX7 AlphaScr z-score
COc1ccccc1CNC(=O)C1CCN(c2nn3c(=O)cc(C)nc3s2)CC1	1.2	2.2
COc1cccc(-c2nc(-c3ccncc3)no2)c1OC	0.83	-1.9
Cc1ccc2c(c1)N(C(C)C(=O)NCCN1CCOCC1)C(=O)CO2 (stereo not given)	1.1	1.4
Cc1ccc(S(=O)(=O)N(C)Cc2nc(-c3ccccn3)no2)cc1	0.97	-0.44
Cc1oc(-c2cccc(Cl)c2)nc1CN1CCC(C(=O)NC(C)c2ccc3c(c2)OCCO3)CC1 (stereo not given)	1	0.17
Cc1ccc(-c2n[nH]c(=O)c3ccccc23)cc1S(=O)(=O)NC(C)C	1	0.69
CCC(=O)N1CCc2cc(S(=O)(=O)NC(CC(C)C)C(=O)NCc3cccc(OC)c3)ccc21 (stereo not given)	0.98	-0.69
COc1ccc(-n2ccnc2SCC(=O)Nc2ccccc2F)cc1	0.62	-0.5
CC1CCN(c2nc3ccc(C(=O)NCc4ccc(F)cc4)cc3s2)CC1	1.1	2.9
Cc1ccc(Nc2nnc(C(C)(C)C)c(=O)[nH]2)cc1	1.3	0.68
O=c1cc(N2CCc3ccccc3C2)[nH]c(=O)n1Cc1ccc(F)cc1	1.1	2
OC(CC#CCN1CCCCC1)(c1ccccc1)C1CCCCC1 (stereo not given)	0.99	-0.3
O=C(NCc1ccccn1)c1cc(-c2ccc(Cl)cc2)nc2ccccc12	0.91	-2.6
CCN(C(=O)c1cn(CC(C)C)c(=O)c2cc(OC)c(OC)cc12)c1cc(C)ccc1C	1	0.7
O=C(O)/C=C\C(=O)N1CCN(c2nc(-c3ccccc3)c3cc(Br)ccc3n2)CC1	1.2	1.7
Cc1noc(/C=C/c2cccs2)c1S(=O)(=O)N1CCCC(C(=O)Nc2cccnc2)C1 (stereo not given)	1	0.043
O=C(Nc1ccccc1Cl)c1ccc2c3c(onc13)-c1ccccc1C2=O	1	0.53
CCOC(=O)c1sc2nc(C)n(CC(=O)Nc3ccc(OCC)cc3)c(=O)c2c1C	1	1.3
Cc1ccc(OCCOc2ccccc2-c2nc3sc4c(c3c(=O)[nH]2)CCCC4)cc1	1.1	1.8
COc1ccccc1N1CCN(C(=O)c2cc(C3CC3)on2)CC1	1	0.027
Cc1ccccc1-c1nc(CN2CCC(C(=O)NCCCN3CCOCC3)CC2)c(C)o1	1	0.067
O=C(NCCc1c[nH]c2ccccc12)C(=O)Nc1cccc(C(F)(F)F)c1	0.95	-0.58
O=C(Nc1nc(-c2ccccn2)cs1)c1ccc(S(=O)(=O)N2CCCc3ccccc32)cc1	0.89	-3.7
CC(C)COc1ccc2[nH]c3c(c2c1)CCCC3=O	0.86	-1.7
CCOc1ccc(NC(=O)C2CCN(c3nn4c(=O)cc(C)nc4s3)CC2)cc1	1	0.36

(cont.)
SMILES	CBX7 AlphaScr	CBX7 AlphaScr z-score
COc1ccc(C(=O)Nc2sc3c(c2-c2nc4ccccc4s2)CCCC3)cc1OC	1.2	0.41
Cc1ccc2c(c1)-c1c(cnn1CC(=O)NCCN1CCN(c3ccccc3F)CC1)CO2	0.96	-0.81
NC(=O)C1CC(=O)N(c2ccc(OCC(=O)Nc3cccc(C(F)(F)F)c3)cc2)C1 (stereo not given)	1	-0.079
COc1ccc(-n2c(C)nc3cc(C(=O)NCCc4ccccc4)ccc32)cc1	0.97	-0.87
COc1ccc(-n2c3c(cc(C(=O)O)c2=O)C(=O)CC(C)(C)C3)cc1	1.1	1.6
COc1ccc(NC(=O)CCc2nc(-c3ccc(C)cc3)no2)c(OC)c1	1	0.63
CCCCCn1c(=O)[nH]c2cc(C(=O)N3CCN(c4ccc(OC)cc4)CC3)ccc2c1=O	0.91	-1.6
COc1ccc(N2C(=O)CC(NC3CCN(Cc4ccccc4)CC3)C2=O)cc1 (stereo not given)	1	0.63
Cc1cc(NC(=O)C2CCCN(S(=O)(=O)c3c(C)noc3C)C2)n[nH]1 (stereo not given)	0.93	-1.3
COC(=O)c1ccc(NC2c3ccccc3C(=O)N2c2cccnc2)cc1 (stereo not given)	1.1	1.4
Cc1ccn2c(Nc3ccc4c(c3)OCCO4)c(-c3ccccc3)nc2c1	1.1	0.72
CCCOc1ccc(C(O)(CCN2CCCCC2)C2CCCCC2)cc1 (stereo not given)	0.95	-1.1
CCN(CC)c1cc(C)c2cc(NC(=O)CCc3ccc(OC)cc3)ccc2n1	1.1	0.88
Cc1ccc(N2CC(C(=O)Nc3ccc(F)c(Cl)c3)CC2=O)cc1 (stereo not given)	1	0.85
O=C(Nc1nnc(-c2ccc3c(c2)OCO3)s1)c1ccccc1Br	1	1.6
Cn1nc(C(F)(F)C(F)F)cc1-c1ccccc1O	0.98	-0.52
CCCN(c1nc(C)cc(OC)n1)S(=O)(=O)c1ccccc1Cl	1.1	1.7
CN(CCNC(=O)C1CCN(c2nc3ccccc3[nH]2)CC1)C1CCCCC1	0.83	-1.9
COc1ccc(C2C(C(=O)Nc3cc(C)ccn3)=C(C)NC3=C2C(=O)CCC3)c(OC)c1 (stereo not given)	1.2	0.39
COc1ccc(-c2c(C)nn3c(NCc4ccccn4)cc(C)nc23)cc1OC	0.39*	-15*
COc1ccc(OC)c(CCNC(=O)CN2C(=O)CCSc3ccccc32)c1	1	0.27
O=C(CCc1nc(-c2ccccc2F)no1)NCC1COc2ccccc2O1 (stereo not given)	0.94	-0.85
Cc1ccc(CNc2ccc3nnc(-c4ccccc4)n3n2)cc1	0.96	-0.95
C=CCOc1ccc(Oc2nc(C)cc(OC)n2)nn1	1	0.4
Cc1nnc(SCC(=O)Nc2nsc(-c3ccc(C(C)(C)C)cc3)n2)s1	0.9	-1.2

Other structures.
SMILES	CBX7 AlphaScr	CBX7 AlphaScr z-score
Cc1nc(SCC(=O)Nc2ccccn2)n[nH]1	1.1	1.9
COc1ccc(CCCc2nnc(SCC(=O)Nc3ccccc3F)o2)cc1	0.93	-0.75
Cc1cc2nc(-c3ccc(Cl)cc3)cc(C(F)(F)F)n2n1	1.2	6.1
O=C(O)c1cc2cccc(S(=O)(=O)N3CCCCC3)c2cc1O	0.87	-1.4
COc1ccc(Cn2c(CCC(=O)NCc3ccccc3OC)nc3cccnc32)cc1	1.1	2.9
COc1cccc(C(=O)Nc2c(-c3ccccc3)nc3ccccn23)c1OC	1	0.49
O=C(c1cc2n(n1)C(C(F)(F)F)CC(c1ccccc1)N2)N1CCOCC1 (stereo not given)	1.1	2.6
COc1nnc(-c2ccc(Cl)cc2)c2ccccc12	1	0.19
Cc1ccc(CNC(=O)c2ccc3c(c2)N(Cc2ccccc2Cl)C(=O)CS3)cc1	0.96	-0.91
COc1cccc(CNC(=O)CN(C)S(=O)(=O)c2cccc3cccnc23)c1	0.99	-0.32
CC1CCCC(NC(=O)Cc2ccc(NC3=NC4CS(=O)(=O)CC4S3)cc2)C1C (stereo not given)	0.89	-1.2
CCOCCCNC(=O)c1c[nH]c2ccc(S(=O)(=O)Nc3cccc(Cl)c3C)cc2c1=O	1.1	1.5
O=c1ccnc2c1c(-c1ccccc1)nc1[nH]onc12	1.2	4.5
O=C(CC1(O)C(=O)N(Cc2ccc(Cl)cc2)c2ccccc21)c1ccncc1 (stereo not given)	0.71	-0.32
Cc1oc(-c2ccc(Cl)cc2)nc1CN1CCC(C(=O)NCc2ccccn2)CC1	1	0.32
CCOCCCNC(=O)c1ccc2c(c1)ncn2-c1cccc(Cl)c1	1	0.52
Cc1ccc(S(=O)(=O)N2CCN(c3nc(NC4CCCC4)c4ccccc4n3)CC2)cc1	0.84	-1.5
CCOc1ccccc1C(=O)N1CC(=O)Nc2ccc(Cl)cc2C1c1ccccc1 (stereo not given)	0.93	-0.28
NS(=O)(=O)c1ccc(CCNC(=O)c2ccc(C#CC3(O)CCCCC3)cc2)cc1	0.99	-0.19
O=C1CN(C(=O)CCC2CCCCC2)C(c2ccccc2)c2cc(Cl)ccc2N1 (stereo not given)	0.88	-0.52
Cc1ccccc1Nc1c(-c2ccccn2)nc2ccc(Cl)cn12	0.96	-1
CC1CN(c2nc(-c3ccc(Cl)cc3)nc3ccccc23)CC(C)O1 (stereo not given)	1.2	2.3
O=C(CN1C(=O)COc2ccc(S(=O)(=O)N3CCCC3)cc21)NCCCN1CCOCC1	1	0.45
CCCN(CCC)CCCNC(=O)c1cc2c(-c3cccc(OC)c3)nn(C)c2s1	0.95	-1.5
COc1ccc(-c2csc(N3CCN(c4cc(C)nc5ccccc45)CC3)n2)cc1OC	0.79	-2.1

Carrying on:
SMILES	CBX7 AlphaScr	CBX7 AlphaScr z-score
Cc1nc(Nc2nc3c(c(=O)[nH]2)CCCC3)nc2ccccc12	1.1	0.13
Cc1cc(Cl)ccc1OCCCc1c(C)n[nH]c1C	1	0.49
CCCOc1ccc(-c2cc(C(=O)NCCCN3CCOCC3)c3ccccc3n2)cc1	1	0.71
CCCC(CCC)C(=O)Nc1ccc2c(c1)N(C(=O)CN(CC)CC)c1ccccc1CC2	0.83	-2
CCOC(=O)C1CCN(Cc2nc(-c3cccc(Br)c3)oc2C)CC1	0.99	-0.55
COc1ccc(Cc2cnc(NC(=O)COc3cccc(C(F)(F)F)c3)s2)cc1	1.2	2.7
Cc1oc(-c2ccc(Cl)cc2)nc1CN1CCCC(C(=O)NCCCN2CCCC2)C1 (stereo not given)	1	0.0036
Fc1ccc(-n2cc(-c3ccccc3)c3c(NCC4CCCO4)ncnc32)cc1 (stereo not given)	0.97	-0.77
COc1ccc(Cn2c(CCC(=O)Nc3ccc(CC#N)cc3)nc3cccnc32)cc1	0.94	-1.1
CCCCCc1ccc(-c2ccc(C(F)(F)C(F)(F)C(F)(F)C(F)(F)C(F)(F)C(F)(F)F)cc2)nc1	1.1	1.1
Cc1nn(-c2ccccc2C(C)C)c2c1C(=O)CC(C)(C)C2	0.74	-0.52
CCOc1ccc2nc(N3CCC(C(=O)NCc4ccccc4F)CC3)sc2c1	1	1.4
CCN(CC)S(=O)(=O)c1ccc(C(=O)Nc2nc3c(s2)C(=O)CC(C)(C)C3)cc1	0.97	-0.74
CCOCCCNC(=O)Cn1nc(-c2ccccc2)ccc1=O	1	0.18
Cc1cccc(NS(=O)(=O)c2ccc3c(c2)CCN3C(=O)CCC(=O)O)c1C	0.9	-1.6
Cc1ccc2c(C)nc(Nc3nc(C)c(C)c(=O)[nH]3)nc2c1	1.1	0.91
CCOc1cccc(NC(=O)CSc2ncc(-c3ccc(Cl)cc3)[nH]2)c1	0.91	-4
CCOc1ccc(Nc2cc(C(=O)NCCCOC)c3ccccc3n2)cc1	1.1	1.9
Cc1nc2cc(-c3cccc(F)c3)nn2c(C)c1CCC(=O)NC(C)(C)C	0.85	-2.5
Cc1ccc(C)c(NC(=O)c2cnn(-c3ccccc3)c2C2CCNCC2)c1	1	0.93
CN(Cc1ccccc1)C(=O)Cn1nc(-c2ccc(Cl)cc2)ccc1=O	1	0.54
CCOc1ccccc1NC(=O)c1c(NCc2ccc(OC)cc2)sc2c1CCC2	1	1.4
Cc1ccc(C(=O)Nc2sc3c(c2C(=O)N2CCOCC2)CCC(C(C)(C)C)C3)cc1 (stereo not given)	0.9	-1.2
O=C1CN(C(=O)c2ccccc2C(F)(F)F)C(c2ccccc2)c2cc(Cl)ccc2N1 (stereo not given)	0.72	-2.6
Cc1noc(NS(=O)(=O)c2ccc(NC(=O)C(C)(C)C)cc2)c1C	1	0.31

Later entries:
SMILES	CBX7 AlphaScr	CBX7 AlphaScr z-score
Oc1ccc(C2(c3cccc(Cl)c3)CCCC2)cc1	0.67	-8.2
COc1ccc(C2=NOC(C(=O)N(C)C3CCCCC3)C2)cc1 (stereo not given)	0.99	-0.095
C=CCN1C(=O)c2ccccc2Sc2ccc(C(=O)N3CCC(C(N)=O)CC3)cc21	1	0.17
O=C(COc1ccccc1)Nc1ncc(Cc2cc(Cl)ccc2Cl)s1	1	0.2
CCCN(CCC)CCCNc1cc(C)nc2c(-c3ccc(Cl)cc3)c(C)nn12	1.4	2.8
Cc1cc(C)cc(NC2c3ccccc3C(=O)N2c2ccccc2C)c1 (stereo not given)	0.88	-4
O=C(NCc1cccnc1)c1ccc(C#Cc2ccccc2)cc1	0.88	-0.76
Cc1ccc(N2C(=O)c3ccccc3C2Nc2ccc(F)cc2F)nc1 (stereo not given)	1	0.29
Nc1nonc1C(=O)NCCNC(=O)c1ccc(F)cc1	1.1	0.59
FC(F)(F)c1cc(-c2cccs2)nc(N2CCN(Cc3ccccc3)CC2)n1	1.1	0.89
Cc1cc(C)nc(SCc2nc3ccc(Cl)cn3c2Br)n1	1	0.81
